Screening data deposited in PubChem BioAssay by several laboratories.
GALR2 agonist – GALR2 receptor agonists, primary screen, cell-based | Galanin receptor type 2 (Homo sapiens), O43603 | GALR2-expressing cells, agonist activation read-out | activation, %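 (tested at 5 µM)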 | 140,000 tested, 0.48% active | AID 803, 2007;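 active = above mean plus 3 SD of all compounds, about 5% in these data, not always enough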;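 note: 0% = vehicle buffer wells and 100% = reference agonist at full effect; tested in CHO reporter cells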
Target sequence (O43603 whole entry, looked up): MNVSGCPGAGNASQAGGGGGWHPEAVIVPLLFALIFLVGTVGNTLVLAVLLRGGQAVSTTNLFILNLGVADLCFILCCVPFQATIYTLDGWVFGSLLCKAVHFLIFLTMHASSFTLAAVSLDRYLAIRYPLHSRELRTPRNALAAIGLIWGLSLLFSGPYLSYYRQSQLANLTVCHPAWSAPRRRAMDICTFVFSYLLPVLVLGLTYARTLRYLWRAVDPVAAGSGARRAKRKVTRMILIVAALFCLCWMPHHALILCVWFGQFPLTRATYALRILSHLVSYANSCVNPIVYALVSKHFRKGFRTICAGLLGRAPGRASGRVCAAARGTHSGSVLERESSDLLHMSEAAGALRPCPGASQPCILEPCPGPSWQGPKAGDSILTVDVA
PKD1 inh – inhibitors of human PKD1 kinase, biochemical, fluorescence polarization. Serine/threonine-protein kinase D1 (Homo sapiens), Q15139. PKD1 kinase fluorescence polarization assay. inhibition, %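 (about 10 µM by stock and volumes)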. 200,000 tested, 0.056% active;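 active = inhibition of 50% or more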;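 note: controls were vehicle for no effect and a reference inhibitor for full effect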
HSV augment – enhancers of HSV replication in host cells, fold increase, host cell viability; maximum fold increase; 220,000 tested, 0.005% active; HSV replication augmentation in cells;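 active = peak rise of 1.5-fold or more in the series; inconclusive = self-fluorescent or not available for retest; tested in PC3 cells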;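 note: first round at 10 µM; read as green reporter fluorescence; hits show the peak of a series up to 25 µM; 1 = signal of infected wells without compound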
RGS16-Gao HTS – modulators of RGS16 binding to Galphao, primary screen, biochemical, human proteins, multiplexed bead flow cytometry. Regulator of G-protein signaling 16 (Homo sapiens) + Guanine nucleotide-binding protein …. bead-based flow cytometry RGS16-Galphao binding, fluorescence; actives lie on both sides. binding response (% of control), % at 10 µM. 220,000 tested, 0.38% active;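 active = below 25% or above 175%, edge rows of some plates excepted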;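 note: Galphao activated by GDP with aluminum fluoride before binding; 100% = wells without compound and 0% = beads without RGS; some results beyond the cut were filed as inactive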
Target sequence (O15492 whole entry, looked up): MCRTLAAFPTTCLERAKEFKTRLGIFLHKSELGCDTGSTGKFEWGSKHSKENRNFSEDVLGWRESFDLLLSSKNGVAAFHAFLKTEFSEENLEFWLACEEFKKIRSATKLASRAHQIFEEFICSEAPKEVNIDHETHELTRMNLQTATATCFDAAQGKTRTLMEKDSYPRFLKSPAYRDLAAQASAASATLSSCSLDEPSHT
Target sequence (P09471 whole entry, looked up): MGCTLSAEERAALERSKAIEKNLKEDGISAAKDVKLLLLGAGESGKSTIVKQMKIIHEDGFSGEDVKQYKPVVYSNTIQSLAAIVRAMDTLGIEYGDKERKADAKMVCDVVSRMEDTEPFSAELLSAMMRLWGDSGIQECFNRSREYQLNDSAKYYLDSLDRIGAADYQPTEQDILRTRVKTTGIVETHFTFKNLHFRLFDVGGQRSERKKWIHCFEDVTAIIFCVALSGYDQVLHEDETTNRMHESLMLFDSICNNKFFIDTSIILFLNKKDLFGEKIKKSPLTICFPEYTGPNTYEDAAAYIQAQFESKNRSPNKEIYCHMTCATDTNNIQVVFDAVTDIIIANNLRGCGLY
Insulin prom inh – inhibitors of insulin promoter-driven GFP, primary screen, imaging, TRM-6 cells (human fetal islet line), eGFP reporter, cell count | AID 1273, 2008 | inhibition, % at 2 µM | reporter expression induced with tamoxifen | 130,000 tested, 0.9% active;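 active = inhibition above the mean plus 3 SD, with well images judged a real hit on visual review, cut at about 60% in these data, passing the limit was not always enough; inconclusive = inhibition over the cutoff but images rejected on review; inactive = inhibition not above the cutoff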
Insulin prom inh cell count – recorded beside Insulin prom inh, whose call it bears; normalized cell count, %; measured here: cell count, toxicity; reference of the scale not given here;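 cells exposed to compound for 48 h; stained nuclei by imaging scaled within each plate; lower means fewer cells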
HSV augment primary fold – second read-out of HSV augment, no call of its own (marks repeat the call); fold increase; compound at 10 µM; measured here: primary screen fold increase 10 uM; tested in PC3 cells;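 GFP signal in the first replicate; 1 = infected wells without compound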
* hit, by the source's call; i = inactive; ? = inconclusive; . = not tested or not shown.

SMILES	GALR2 agonist	PKD1 inh	HSV augment	HSV augment primary fold	RGS16-Gao HTS	Insulin prom inh	Insulin prom inh cell count
c1cncc(CSc2nnc3ccc(-c4ccncc4)nn23)c1	.	-1.9	i	0.94	101.0	.	.
COc1ccc(CCNC(=O)CCc2ccc(S(=O)(=O)NC(C)C)cc2)cc1OC	-1.5	-3.2	i	1.11	102.7	21.4	145.6
Cn1ncc(N=Cc2ccccc2O)c1C(=O)N1CCOCC1	-1.0	12.3	.	.	101.9	.	.
COc1ccc(-c2ccc(OC)cc2C(=O)O)cc1	-2.0	-2.1	i	1	94.8	6.2	37.3
Cc1ccccc1C(=O)NC(=S)Nc1ccc(Cc2ccncc2)cc1	-1.4	-2.4	i	0.9	107.2	27.0	126.3
CCCNC(=O)Cn1c(=O)cnc2ccccc21	-0.7	-13.4	i	0.92	58.8	.	.
CCC(C)NC(=O)Cn1c(=O)n(-c2ccc(OC)cc2)c(=O)c2ccc(C(=O)NCc3ccc(C)cc3)cc21 (configuration not stated)	.	-0.3	i	0.91	90.6	26.7	91.4
CC(C)(C)NC(=O)NC(=O)COC(=O)C1=COCCO1	0.0	-0.5	i	0.9	114.0	-13.5	49.5
O=C(Nc1ccccc1)c1ccccc1OCC(O)CN1C(=O)c2ccccc2S1(=O)=O (configuration not stated)	-1.1	-3.6	i	0.7	101.7	8.3	156.5
CC(=O)Nc1c(C(=O)N2CCCCCC2)cnn1-c1ccccc1Cl	-1.8	5.0	i	0.92	93.7	-15.0	116.2
CC(C)(C)C(=O)Nc1ccc(S(=O)(=O)Nc2ccccn2)cc1	.	-14.6	i	1.02	100.1	.	.
CCS(=O)(=O)N1Cc2ccccc2CC1C(=O)Nc1cccc(C)c1 (configuration not stated)	.	-2.2	i	0.92	105.3	-22.2	118.3
CCNc1nc(N2CCOCC2)nc(N(c2ccccc2)c2ccccc2)n1	-1.5	-15.1	i	1	96.9	28.6	21.4
CS(=O)(=O)Nc1ccccc1C(=O)Nc1ccccc1Cl	-1.5	-3.8	i	0.96	33.4	38.9	148.9
COc1ccc(OC)c(NC(=O)CSc2nnc(CNc3ccc(F)cc3)o2)c1	0.2	-12.7	i	0.9	116.4	.	.
CS(=O)(=O)Nc1cccc(S(=O)(=O)N2CCN(C(=O)c3ccccc3)CC2)c1	.	.	i	1.01	105.3	.	.
O=c1c2cnn(-c3ccccc3)c2ncn1Cc1ccccc1	-0.1	-11.5	i	0.92	73.3	18.8	187.9
CCCCCCOc1ccc(N2C(=O)CC(N3CCC(C(=O)OCC)CC3)C2=O)cc1 (configuration not stated)	-2.5	2.4	i	0.93	104.1	.	.
Cc1ccc(Cn2ccc(NC(=O)c3cc(-c4cccc(Cl)c4)on3)n2)cc1	-1.9	-7.0	i	1.09	95.1	.	.
CCOC(=O)CNC(=O)CSc1nnc(Cn2c(=O)sc3ccccc32)n1C	-0.6	-22.7	i	1.06	101.3	.	.
N#Cc1nc(COc2ccc(F)cc2)oc1N1CCN(Cc2ccccc2)CC1	-1.1	-8.5	.	.	102.3	.	.
O=C(NCc1cccnc1)c1cccn1-c1ncc(C(F)(F)F)cc1Cl	.	-4.9	i	0.92	93.7	7.1	120.9
COc1ccc(-n2c(SCC(=O)Nc3ccc4c(c3)OCO4)nc3ccccc3c2=O)cc1	-1.1	-7.7	i	0.83	94.8	.	.
CCc1nnc(NC(=O)CSc2nnc(Cc3ccccc3)n2Cc2ccccc2)s1	-1.8	-3.2	i	0.98	89.3	.	.
Cc1ccc(-c2nnc(N3CCOCC3)c3ccccc23)cc1S(=O)(=O)NCC1CCCO1 (configuration not stated)	-0.3	-9.6	i	0.997	100.8	0.0	103.1
COc1ccc(-c2nc3ccccc3c(=O)n2CCCN2CCOCC2)cc1	-0.1	-11.9	i	0.98	98.4	-20.0	89.6
COc1cc(NC(=O)c2ccco2)c(OC)cc1NC(=O)CCC(=O)Nc1cc(C)ccc1C	-2.4	-9.0	i	0.76	105.8	.	.
Cc1cc(C)c2ccc(Cl)cc2n1	.	.	i	0.99	98.2	.	.
O=C(O)CCN1C(=O)C(=C2CCCCCC2)SC1=S	-1.3	5.8	i	0.93	95.1	.	.
CCCCC(Sc1nc(N)c(NC(=O)c2ccc(OCC)cc2)c(=O)[nH]1)C(=O)O (configuration not stated)	.	-1.1	i	0.9	101.4	.	.
O=C(CN1C(=O)C2C3C=CC(C3)C2C1=O)N1CC(=O)N(CCc2ccccc2)C(=O)C1 (configuration not stated)	-1.6	-4.5	i	0.83	101.0	-92.3	53.5
O=C(O)C1C2C=CC(C2)C1C(=O)NCCc1ccncc1 (configuration not stated)	0.4	9.2	i	0.93	106.3	-28.9	102.8
Cc1ccc(OCC(=O)n2cnnc2N)c(C)c1	-2.1	-6.2	i	1.1	96.4	-3.4	155.6
COc1cc2nc(COc3ccccc3[N+](=O)[O-])oc(=O)c2cc1OC	-2.1	0.4	i	0.98	97.3	38.9	110.2
O=C(CSc1ncn[nH]1)c1ccc2c(c1)OCCO2	-2.0	-2.4	i	0.97	56.8	-185.7	106.7
C=Cn1nc(C)c2ccccc2c1=O	-0.6	0.0	i	0.87	17.5*	8.1	72.3

Some of the entries so far, as labelled records:
> CC(=O)Nc1c(C(=O)N2CCCCCC2)cnn1-c1ccccc1Cl
  GALR2 agonist: -1.8	PKD1 inh: 5.0	HSV augment: i	HSV augment primary fold: 0.92	RGS16-Gao HTS: 93.7	Insulin prom inh: -15.0	Insulin prom inh cell count: 116.2

> CC(C)(C)C(=O)Nc1ccc(S(=O)(=O)Nc2ccccn2)cc1
  GALR2 agonist: .	PKD1 inh: -14.6	HSV augment: i	HSV augment primary fold: 1.02	RGS16-Gao HTS: 100.1	Insulin prom inh: .	Insulin prom inh cell count: .

> CCS(=O)(=O)N1Cc2ccccc2CC1C(=O)Nc1cccc(C)c1 (configuration not stated)
  GALR2 agonist: .	PKD1 inh: -2.2	HSV augment: i	HSV augment primary fold: 0.92	RGS16-Gao HTS: 105.3	Insulin prom inh: -22.2	Insulin prom inh cell count: 118.3

> CCNc1nc(N2CCOCC2)nc(N(c2ccccc2)c2ccccc2)n1
  GALR2 agonist: -1.5	PKD1 inh: -15.1	HSV augment: i	HSV augment primary fold: 1	RGS16-Gao HTS: 96.9	Insulin prom inh: 28.6	Insulin prom inh cell count: 21.4

(next part)
SMILES	GALR2 agonist	PKD1 inh	HSV augment	HSV augment primary fold	RGS16-Gao HTS	Insulin prom inh	Insulin prom inh cell count
O=C(COc1ccc(F)cc1)N1CCC(c2ccccc2)C1 (configuration not stated)	-3.3	-0.5	i	0.94	104.8	62.2	88.1
CC1(C)CC(NC(=O)COc2ccc3ccccc3c2)CC(C)(C)N1	-0.6	-10.2	i	0.96	99.8	-5.4	68.3
CN1C(=O)C(CC(=O)Nc2ccc(F)cc2)N(Cc2cccs2)C1=S (configuration not stated)	.	.	i	0.92	98.8	.	.
CC(O)c1cccc(NC2=CC(=O)CC(C)(C)C2)c1 (configuration not stated)	-2.4	-2.6	i	0.75	81.2	63.6	123.5
CC(C)(C)Nc1nc(Oc2ccc(=O)[nH]n2)nc(N2CCOCC2)n1	.	2.7	i	1.02	104.6	-8.3	124.1
Cc1ccc(OCCCCNC(C)(C)C)c([N+](=O)[O-])c1	-1.1	-3.9	i	1.06	101.5	.	.
COc1cc(Cl)nn(-c2ccccc2)c1=O	-1.1	0.3	i	0.95	48.2	.	.
N#Cc1ccccc1Sc1ccccc1C(=O)Nc1ccc2ccccc2c1	-1.9	7.9	i	1	162.8	.	.
CCCNC(=O)Cn1c(=O)/c(=C\c2ccc(-c3ccc([N+](=O)[O-])cc3)o2)s/c1=C\C(=O)C(C)(C)C	-0.2	31.5	?	.	49.4	-270.4	105.6
CCSc1nnc(NC(=O)COc2ccccc2[N+](=O)[O-])s1	.	7.6	i	1.2	99.9	.	.
COc1ccccc1C(c1nnnn1Cc1ccccc1)N1CCN(c2nc3ccccc3s2)CC1 (configuration not stated)	-0.3	-1.9	i	1	101.5	0.0	121.1
COCCCNC(=S)N/N=C/c1ccc(O)cc1O	.	.	i	0.93	98.5	.	.
CCCC(C)C(=O)Nc1ccc(Cl)cn1 (configuration not stated)	-1.6	-0.1	i	1.01	105.1	54.2	159.8
Cc1ccc(Nc2c([N+](=O)[O-])c(=O)oc3ccccc23)cc1C	.	0.1	i	0.87	99.4	.	.
CCc1c(C(=O)Nc2ncn(Cc3cccc(C)c3)n2)csc1C	-3.4	-6.7	i	1.09	100.9	40.0	90.5
CN1CCN(S(=O)(=O)c2ccc(N3CCc4ccccc4C3)nc2)CC1	.	3.0	i	0.95	100.8	.	.
Cc1ccn(C(=O)c2cc3ccccc3oc2=O)n1	-1.6	-2.3	.	.	106.8	7.7	154.7
FC(F)(F)c1cnc2c(-c3ccc(Cl)cc3Cl)noc2c1	-1.3	-6.6	i	0.953	98.9	-28.1	239.6
CCOC(=O)C1=C(CC)OC(N)=C(C#N)C1c1ccc(OC)c(C)c1OC (configuration not stated)	-0.9	-4.6	i	1.04	96.0	28.6	100.7
CCNS(=O)(=O)c1ccc(NC(=S)NCC2CCCO2)cc1 (configuration not stated)	.	0.7	i	0.9	104.5	.	.
CC(=O)N(C(C)=O)c1c(N2CCCC2)c2ccccc2oc1=O	.	-0.1	i	1.1	87.0	.	.
COc1ccccc1NC(=O)CCSCCC(=O)Nc1ccccc1OC	-0.1	-6.4	i	1.09	102.6	15.6	116.9
CCC(=O)Nc1ccc(Cl)c(NC(=S)NC(=O)c2cc3ccccc3o2)c1	-0.4	-9.1	i	0.98	115.2	30.0	89.0
Cc1ccc(SCCNC(=S)Nc2cc(C)cc(C)c2)cc1	-2.2	2.7	i	0.83	93.1	27.6	69.3
COc1ccc(CCNC(=O)CSc2nc(N)cc(=O)[nH]2)cc1OC	.	0.2	i	1	97.7	-57.1	98.0
O=C(Nc1nnc(CSCc2ccc(F)cc2)s1)c1cccc([N+](=O)[O-])c1	-0.8	2.2	i	1.07	110.2	.	.
[O-]/C(=C(\C(=S)Nc1ccc(SC(F)F)cc1)[n+]1cccc(CO)c1)c1ccc(Cl)s1	.	2.8	i	0.96	101.3	.	.
O=C(O)C(=O)Cc1c[nH]c2ccccc12	-1.0	-3.1	i	0.64	70.5	40.9	129.2
Oc1ccc(-c2nnc(-c3ccc(O)cc3)nn2)cc1	-3.0	-5.0	i	0.95	98.2	72.7	129.8
C=CCOc1ccccc1CNc1ccc2[nH]c(=O)[nH]c2c1	.	-5.5	i	1.03	103.5	.	.
CC(C)(C)c1ccc(OCc2cnc(Cl)s2)cc1	.	-6.5	i	1.03	112.8	.	.
O=C1N=C(N2CCOCC2)S/C1=C/c1ccc(-c2ccccc2Cl)o1	-1.5	4.6	i	0.8	92.7	23.1	100.0
CC(NC(=O)COC(=O)C1CSC2(C)CCC(=O)N12)C12CC3CC(CC(C3)C1)C2 (configuration not stated)	.	3.7	i	0.97	102.1	.	.
COc1ccc(/C=N/N=C2\SC(CC(=O)O)C(=O)N2c2ccccc2)c(OC)c1 (configuration not stated)	0.1	-8.7	i	1.02	101.6	.	.
C/C(CC(=O)Nc1ccccn1)=N\NC(=O)C(=O)Nc1cccc(C)c1	-1.1	-6.5	i	0.95	103.9	-17.4	58.9
